Screening results: PubChem BioAssay, National Center for Advancing Translational Sciences (NCATS)
SARS PLpro yeast: inhibitors of SARS-CoV papain-like protease in yeast; 0.19% of 330,000 active; Potency, µM (top dose mostly 32.9 µM), without a hit: at the highest dose activity, positive = growth rescue; AID 485353; S. cerevisiae expressing SARS-CoV PLpro, growth rescue; control for the full effect not named in the record; further: 0% is about no effect; nearly all actives have a fitted effect of over 55% in size; growth read by luminescence after 48 h
LASV entry inh: blocks Lassa virus binding to or entry into cells. Lassa virus pseudotype entry inhibition, cell reporter; control for the full effect not named in the record. Potency, µM (doses to about 37.9 µM), inactives show top-dose activity change, negative = inhibition, actives largely listed as inhibitors. 1.2% of 300,000 active. AID 540256; active means well fitted inhibition curve with a large enough effect; inconclusive means small, poorly fitted or top-dose-only effect, or effect the other way; inactive means flat fitted curve, though single readings scatter; tested in HEK293 cells; further: on the % scale 0 is the no-effect control and ±100 the full control effect; nearly all actives have a fitted effect of over 50% in size; luciferase read-out
NS1 function inh: inhibitors of influenza NS1 protein function; 0.4% of 270,000 active; S. cerevisiae slowed by influenza A NS1, growth recovery by OD600; Potency, µM (doses to about 46.1 µM), for inactives: top-dose activity, positive = more growth; further: actives are rising curves; nearly all actives have a fitted effect of over 50% in size
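OD600 was taken as the measure of yeast growth restored by compound in an NS1-expressing S. cerevisiae strain. Cells had been washed out of glucose medium and diluted 1:100 into galactose -URA medium, pH 6.0.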
Cruzain inh noDet: inhibitors of Trypanosoma cruzi cruzain without detergent | purified cruzain, Z-FR-AMC fluorescence, no detergent | P25779 | Potency, µM, for inactives: max response, negative = inhibition, most hits filed as inhibitors | 2.3% of 200,000 active; active means well fitted curve in the direction sought with a large enough effect; inconclusive means small, poorly fitted or top-dose-only effect, or another doubt; inactive means no such curve, though single readings can be large; an effect the other way counts as inactive or inconclusive;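 further: plate controls were enzyme without inhibitor for no effect and buffer without enzyme for full effect; nearly all actives have a fitted effect of over 40% in size; top concentration of the series not given in the record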
Target sequence (P25779 123-467 limits assumed): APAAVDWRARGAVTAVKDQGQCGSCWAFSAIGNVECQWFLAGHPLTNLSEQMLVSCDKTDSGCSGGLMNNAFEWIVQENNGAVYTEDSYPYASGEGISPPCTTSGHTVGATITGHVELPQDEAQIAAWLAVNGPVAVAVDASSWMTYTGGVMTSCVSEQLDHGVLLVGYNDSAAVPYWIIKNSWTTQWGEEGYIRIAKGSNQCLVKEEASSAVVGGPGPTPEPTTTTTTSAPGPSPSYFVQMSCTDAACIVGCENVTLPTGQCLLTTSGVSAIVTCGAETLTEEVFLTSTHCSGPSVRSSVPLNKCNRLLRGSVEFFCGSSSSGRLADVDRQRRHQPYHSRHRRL
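Detergent-free condition (0.00005% Triton X-100) in acetate buffer pH 5.5 with DTT. 1.5 nM enzyme and compound were pre-mixed 15 min, then 2 uM Z-FR-AMC substrate added; reaction progress from fluorescence change between first and third reads (60 s).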
Cruzain Triton: cruzain (T. cruzi) inhibition with detergent | P25779 | purified cruzain, Z-FR-AMC fluorescence, 0.01% Triton | Potency, µM, for the others: max response, negative = inhibition, usual class: inhibitors | 0.43% of 200,000 active; active means well fitted curve in the direction sought with a large enough effect; inconclusive means small, poorly fitted or top-dose-only effect, or another doubt; inactive means no such curve, though single readings can be large; an effect the other way counts as inactive or inconclusive;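 further: plate controls were neutral wells for no effect and buffer without enzyme for full effect; nearly all actives have a fitted effect of over 40% in size; top concentration of the series not given in the record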
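In this qHTS format, compounds are incubated with 1.5 nM cruzain for 15 min at room temperature before 2 uM Z-FR-AMC is added. Release of AMC is followed at 360/450 nm, and progress is taken as the 60 s fluorescence difference.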
RE007 growth inh: less growth of the S. pombe RE007 Vpr strain; S. pombe RE007 Vpr strain, BacTiter-Glo ATP luminescence, 24 h; control for the full effect not named in the record; Potency, µM (top dose mostly 92.2 µM), without a hit: top-dose activity change, negative = less growth; 0.21% of 360,000 active; active = well fitted falling curve with a large enough effect; inconclusive = small, poorly fitted or top-dose-only effect; inactive = no such curve, though single readings can be large or run the other way;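 further: on the % scale 0 is the no-effect control and ±100 the full control effect; nearly all actives have a fitted effect of over 50% in size; the assay follows cell death caused by Vpr and the record does not say whether a fall means rescue or toxicity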
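Fission yeast strain RE007, carrying one chromosomally integrated HIV-1 vpr copy, was seeded at OD 0.01 in PMG+AL medium with 23 nL pinned compound. After 24 h at 30 °C and 99% humidity, viability was read by BacTiter-Glo luminescence.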
Marburg entry inh: Marburg virus entry inhibition | Potency, µM (top dose mostly 37.8 µM), without a hit: at the highest dose activity change, negative = inhibition, hits mostly inhibitors | Marburg virus pseudotyped entry inhibition, cell reporter; control for the full effect not named in the record; about a third of the inactives were read at about 46 µM | 1.8% of 300,000 active; active = well fitted inhibition curve with a large enough effect; inconclusive = small, poorly fitted or top-dose-only effect, or effect the other way; inactive = flat fitted curve, though single readings scatter; tested in HEK293 cells; about a fifth of its hits are not listed in these tables; further: on the % scale 0 is the no-effect control and ±100 the full control effect; luciferase read-out
2A StopGo: lowers the luciferase signal of an FMDV 2A StopGo reporter; human cells with a luciferase reporter of 2A StopGo recoding; control for the full effect not named in the record; Potency, µM (series often up to 57.9 µM), without a hit: top-dose signal change, negative = less light; 1.2% of 410,000 active; AID 1159524; active = well fitted falling curve with a large enough effect; inconclusive = small, poorly fitted or top-dose-only effect; inactive = no such curve, though single readings can be large or run the other way; tested in HEK293T cells; further: on the % scale 0 is the no-effect control and ±100 the full control effect; nearly all actives have a fitted effect of over 45% in size; luciferase light after 4 h
* marks the source's active call; other numbers are inactive results; ? = inconclusive; · = not tested or not shown; & = joins results of further samples; [ ] = dose if it differs, or a comment. Unless noted, the call rests on the fitted dose curve; in most records, active means well fitted rising curve with a large enough effect; inconclusive means small, poorly fitted or top-dose-only effect; inactive means no such curve, though single readings can be large or run the other way. Potency means the concentration at half of the fitted maximal effect.

compound	2A StopGo	RE007 growth inh	SARS PLpro yeast	LASV entry inh	Marburg entry inh	Cruzain Triton	Cruzain inh noDet	NS1 function inh
COc1cc(/C=C/C(=O)OCC(=O)NCc2ccccc2OC)ccc1O	-4%	0%	-8%	-26%[46.1 µM]	-6%	·	·	·
COc1ccccc1NS(=O)(=O)c1ccc(Cl)c(NC(=O)CN2C(=O)c3ccccc3C2=O)c1	-3%	3%	12%	-5%	-18%	-3.3%	-5%	24%
COc1cccc(NC(=O)CSc2ncnc3c2cnn3Cc2ccccc2)c1	?	-1%	-6%	-5%	-13%	2.3%	-7%	-12%
COC(=O)c1ccncc1C(=O)Nc1ccc(OC)cc1	1%	-1%	3%	-1%	24%[46.1 µM]	·	·	·
Cc1c(CCO)c(=O)[nH]n1C(=O)c1c(F)cccc1F	11%	-8%	2%	4.1µM*	2.1µM*	5.5%	-4%	11%
Cc1cc(N2CCN(C)CC2)nc2ccc(NC(=O)CCC3CCCC3)cc12	4%	0%	-4%	?	5%	·	·	-5%
CNC(=S)NNC(=O)c1sccc1C	5%	31%	23%	7%	12%	7.7%	9%	1%
COc1cccc(NC(=O)Cn2c(=O)c3cccn3c3ccc(F)cc32)c1	0%	·	·	-1%[46.1 µM]	·	-10%	18%	·
CCOC(=O)C1=C(CSc2nncn2C)NC(=O)NC1c1cc(OCC)ccc1OCC (stereo not given)	-16%	-16%	·	11%	1%	11%	7%	-3%
CCC(=O)Nc1nnc(SCC(=O)NCCc2ccc(OC)c(OC)c2)s1	-5%	12%	0%	·	·	·	·	-1%
CN1C(C(=O)NCc2ccccc2)CC2Cn3c(nc4cc5ccccc5cc43)C21 (stereo not given)	-21%	2%	1%	·	0%	·	·	-7%
CC1(C)CC(=O)C(CC(=O)Nc2ccc(S(N)(=O)=O)cc2)=C(O)C1	-8%	-4%	2%	2%	6%	0.8%	-15%	6%
CC(C(=O)Nc1ccc(C#N)cc1)N(C)CC(=O)Nc1ccccc1Br (stereo not given)	-26%	5%	0%	?	?	·	·	·
Cc1c(Cl)cccc1NC(=O)C(=O)NCCc1csc(-c2cccc(F)c2)n1	12%	·	·	-2%[46.1 µM]	·	-0.1%	-5%	·
CC(=O)Nc1cc(C(=O)NCc2ccco2)ccc1Sc1ccc(Cl)cc1	-11%	15%	7%	1%	14%	-5.9%	-1%	-5%
Cc1cccc(NC2SC(=O)NC2=O)c1 (stereo not given)	-17%	1%	-2%	5%	-3%	·	·	·
CN(CCc1cn[nH]c1)C(=O)CC1C(=O)NCCN1Cc1ccccc1C(F)(F)F (stereo not given)	-12%	6%	0%	·	·	·	·	15%
COc1ccc(CN2CC(=O)N(c3cccc(Cl)c3)C2=S)cc1OC	-22%	12%	3%	-26%[46.1 µM]	?	·	·	14%
Cc1ccc(CSc2nc(-c3ccccc3C)nc3c2Cc2c(CO)cnc(C)c2O3)cc1	-18%	·	·	6%[46.1 µM]	·	-2.7%	8%	·
CCCC(=O)N1CCN(c2nc3ccc(Br)cc3s2)CC1	3%	-16%	-10%	·	·	·	·	-16%
Nc1nc(SCc2ccc(Cl)cc2Cl)ns1	30%	1%	-22%	-3%	-30%	-10%	-5%	-11%
Cc1cc(C)n2c(SCc3cccs3)nnc2n1	24%	1%	-5%	-5%	13%[46.1 µM]	1.4%	-2%	-40%
COC(=O)c1[nH]c2cc(C)ccc2c1NC(=O)CN1CCOCC1	9%	7%	-1%	25%[46.1 µM]	?	·	·	4%
COc1ccc(N/N=C(C)/C(=N/O)C(=O)Nc2ccccc2)cc1	-3%	?	-15%	-2%[46.1 µM]	?	·	·	·
Clc1ccccc1OCCN1CCC(Cc2ccccc2)CC1	-7%	9%	-1%	·	·	·	·	-5%
NCCCNc1ccc([N+](=O)[O-])cc1C(F)(F)F	-13%	17%	0%	7%	?	·	·	-1%
CCc1cccc(C)c1Nc1nn2c(=O)c3ccccc3nc2s1	-1%	·	·	5%[46.1 µM]	·	0.2%	2%	·
COCCSc1ccccc1C(=O)Nc1ccccc1C#N	3%	-11%	-1%	-14%	9%	·	·	1%
Clc1ccccc1-c1nnn(Cc2ccc(-c3nn[nH]n3)cc2)n1	33%[activator]	34%	7%	1%	10%	-7.4%	-7%	8%
CCOC(=O)c1cc(=O)c2ccc(OCC(=O)Nc3ccccc3)cc2o1	-11%	1%	1%	?	15%[46.1 µM]	·	·	-2%
COc1cccc2c1C(=O)c1ccc3ccccc3c1C2=O	18%	?	-1%	16%	?	-2.3%	1%	-12%
COc1ccc(Br)cc1/C=c1\sc2nc(-c3ccco3)nn2c1=O	-7%	6%	-9%	9%	18%&18%&18%	?	?	-1%
COc1ccc(-c2nc(CS(=O)CC(=O)NC3CCCCC3)c(C)o2)cc1 (stereo not given)	41%[activator]	2%	0%	·	·	·	·	29%
Cc1cccc(C(=O)NNC(=O)CCn2nnc3ccccc32)c1	1%	-2%	1%	-4%[46.1 µM]	-7%[46.1 µM]	·	·	·
Cc1ccc(OCc2cc(C(=O)NC(C)Cc3cccc(C)n3)no2)cn1 (stereo not given)	?	-7%	-2%	-16%[46.1 µM]	?	·	·	8%
CCOCC(=O)Nc1ccc(Br)c(C)c1	29%	-2%	-2%	24%	?	·	·	2%
Cc1noc(C)c1COC(=O)c1ccccc1NC(=O)Cc1ccccc1	-22%	7%	-6%	-22%	?	-5.6%	-1%	-32%
C1=C(c2ccc(-c3ccccc3)cc2)Nc2ncnn2C1c1ccco1 (stereo not given)	-23%	?	·	21%	?	-7.2%	-8%	-78%
CC(N=Cc1c(O)n(C2CC2)c(=S)[nH]c1=O)c1ccccc1 (stereo not given)	-18%	0%	0%	?	?	·	·	6%
COc1ccc(CCNC(=O)Cn2nnc3ccccc3c2=O)cc1	-16%	-11%	25%	-3%	-24%	-0.8%	-5%	11%
CCOC(=O)N1CCC(NC(=O)CCc2c(C)nc3nc(C)nn3c2C)CC1	-1%	-13%	2%	3%	-5%	6.7%	12%	0%
O=C(NCCN1C(=O)S/C(=C\c2cccnc2)C1=O)C1CC(=O)N(Cc2ccco2)C1 (stereo not given)	-22%	7%	5%	-5%	3%[46.1 µM]	·	·	10%
COCCN(C(=O)CNC(=O)c1cccs1)C(C(=O)NC1CCCC1)c1cccs1 (stereo not given)	13%	1%	2%	4%	2%[46.1 µM]	2.3%	-1%	-1%
CCN(CC)CCCNC(=O)c1ccc(-c2nc(CN3CCc4ccccc43)c(C)o2)cc1	-21%	·	·	-26%[46.1 µM]	·	-4.0%	3%	·
FC(F)(F)c1nnc(-c2ccccc2)nc1Sc1ccc(Cl)cc1	-20%	-3%	7%	?	15µM*	-0.8%	-13%	2%
O=C(CSCC(=O)NCc1ccco1)NCc1ccco1	·	-1%	7%	8%	?	3.2%	-3%	12%
CC(=O)c1cccc(NC(=O)Cn2cnc(S(=O)(=O)N3CCc4ccccc43)c2)c1	-25%	10%	7%	·	·	·	·	5%
Cn1cnc([N+](=O)[O-])c1Sc1nc(N)nc2c1ncn2C1CC(O)C(CO)O1 (stereo not given)	?	3%	·	?	?	·	·	·
NS(=O)(=O)c1cc(C(=O)N2CCNC(=O)C2)ccc1Cl	-11%	6%	1%	-3%	8%[46.1 µM]	·	·	7%
COCCNC(=O)Cc1ccc(F)cc1	-22%	-10%	4%	?	21%	-1.6%	-4%	22%
COc1ccc(NC(=O)c2cccc(S(=O)(=O)N3CCN(c4ccccc4)CC3)c2)c(OC)c1	-10%	41%	7%	-24%	?	·	·	·
CCn1cnc2c(cnn2-c2ccccc2)c1=O	42%[activator]	0%	1%	15%	16%	4.0%	2%	-4%
COc1ccc(CNC(=O)C/C(C)=N/NC(=O)c2ccccc2OC)cc1	1%	-8%	2%	-24%[46.1 µM]	12%[46.1 µM]	·	·	-2%
CCCn1ccc2c(OCC(=O)Nc3ccc(F)cc3F)cccc2c1=O	-24%	·	·	?	·	-11%	-17%	·
CN(C(=O)COC(=O)c1ccccc1OCc1ccc(Cl)cc1)c1c(N)n(Cc2ccccc2)c(=O)[nH]c1=O	-15%	5%	-4%	?	?	·	·	·
COc1cccc(-n2cnc(=O)c3cccnc32)c1	-5%	?	-2%	-7%	-3%[46.1 µM]	-3.3%	-6%	0%
CCCOc1ccc(-c2cc(C(F)(F)F)c(C#N)c(SCCC(=O)O)n2)cc1	-7%	·	·	?	4%[46.1 µM]	-11%	25%	·
CNS(=O)(=O)c1ccc(C)cc1	16%	9%	0%	1%	-3%&-3%	3.0%	1%	?
C=CCNc1nc(-c2c(C)nc3ncccn23)cs1	-22%	7%	3%	-9%[46.1 µM]	-5%[46.1 µM]	·	·	-6%
O=C(N/N=C/c1ccc(C(=O)O)cc1)C(=O)N1CCCCCC1	-2%	8%	3%	9%[46.1 µM]	6%[46.1 µM]	·	·	4%
CCOC(=O)c1scc(-c2ccc(C)cc2)c1S(=O)(=O)N1CCN(c2ccccc2F)CC1	-1%	·	·	-8%[46.1 µM]	·	3.4%	-12%	·

Whole records, looked up by structure. Screens in order: 2A StopGo | RE007 growth inh | SARS PLpro yeast | LASV entry inh | Marburg entry inh | Cruzain Triton | Cruzain inh noDet | NS1 function inh
`Cc1ccc(OCc2cc(C(=O)NC(C)Cc3cccc(C)n3)no2)cn1` (stereo not given) across the screens: ? | -7% | -2% | -16%[46.1 µM] | ? | · | · | 8%
`COc1ccc(-c2nc(CS(=O)CC(=O)NC3CCCCC3)c(C)o2)cc1` (stereo not given) across the screens: 41%[activator] | 2% | 0% | · | · | · | · | 29%

Not a hit list, and some 4.7% of all compounds hit somewhere here.
